# NPR1 antag – human Npr1 receptor antagonism; P16066; HEK293 hNpr1 GloSensor cGMP, ANP-stimulated luminescence; Potency, µM (series often up to 46.3 µM), for the others: at the highest dose activity change, negative = inhibition, usual class: inhibitors; 76,000 compounds, 1.6% hits; AID 1347048; active = well fitted inhibition curve with a large enough effect; inconclusive = small, poorly fitted or top-dose-only effect; inactive = no such curve, though single readings can be large or run the other way;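 further: nearly all actives have a fitted effect of over 60% in size; nearly all hits also lower the signal before the agonist is added; a reference antagonist and vehicle were the controls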
# Target sequence (P16066 whole entry, looked up): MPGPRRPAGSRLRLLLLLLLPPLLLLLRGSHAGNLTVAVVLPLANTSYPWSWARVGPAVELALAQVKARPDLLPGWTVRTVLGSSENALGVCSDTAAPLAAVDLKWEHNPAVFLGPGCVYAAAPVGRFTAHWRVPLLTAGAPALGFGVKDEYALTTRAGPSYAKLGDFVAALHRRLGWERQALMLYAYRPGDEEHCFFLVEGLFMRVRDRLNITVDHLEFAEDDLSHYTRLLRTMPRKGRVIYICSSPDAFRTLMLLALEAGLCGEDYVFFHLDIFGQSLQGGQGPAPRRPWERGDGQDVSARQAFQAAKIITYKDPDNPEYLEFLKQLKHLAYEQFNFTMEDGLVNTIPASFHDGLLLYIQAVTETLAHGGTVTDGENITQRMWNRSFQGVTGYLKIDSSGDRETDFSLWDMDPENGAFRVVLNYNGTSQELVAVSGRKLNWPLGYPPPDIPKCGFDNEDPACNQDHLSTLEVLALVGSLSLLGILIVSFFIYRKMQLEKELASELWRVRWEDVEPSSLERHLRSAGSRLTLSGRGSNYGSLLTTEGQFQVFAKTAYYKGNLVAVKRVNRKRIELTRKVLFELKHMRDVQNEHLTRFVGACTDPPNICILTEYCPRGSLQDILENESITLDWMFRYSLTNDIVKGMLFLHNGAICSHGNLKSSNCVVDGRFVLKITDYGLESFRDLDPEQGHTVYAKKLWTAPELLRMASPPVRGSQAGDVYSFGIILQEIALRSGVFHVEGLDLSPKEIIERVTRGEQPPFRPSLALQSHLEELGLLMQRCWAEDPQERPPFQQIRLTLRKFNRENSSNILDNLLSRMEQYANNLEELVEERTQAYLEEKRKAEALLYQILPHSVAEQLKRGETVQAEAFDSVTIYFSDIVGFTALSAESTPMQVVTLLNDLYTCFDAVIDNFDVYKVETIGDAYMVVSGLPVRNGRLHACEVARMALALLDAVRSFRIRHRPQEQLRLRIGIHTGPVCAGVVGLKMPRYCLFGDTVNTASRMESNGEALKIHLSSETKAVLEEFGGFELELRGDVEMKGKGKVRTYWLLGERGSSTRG
#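 Compound pre-incubated 30 min at room temperature on GloSensor-loaded HEK293 cells stably carrying hNpr1 and the pGS-40F cGMP biosensor. Stimulation uses hNppA at 0.1 nM final; luminescence is taken at baseline and 20 min post-agonist.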
# Starred values were filed as active, the others as inactive; ? = inconclusive; [ ] = remark or other dose. On the % scale 0 is the no-effect control and ±100 the full control effect; potency means the concentration at half of the fitted maximal effect. A portion of the library, so the mix of outcomes need not match the whole.
NPR1 antag,structure
-1%,O=C(c1ccc(Cl)cc1)N1CCCC2(C1)NC(=O)N(Cc1ccc(Cl)cc1)C2=O (stereo unspecified)
-1%,CCCCNC(=O)CN1C(=O)NC2(CCC(C)CC2)C1=O (stereo unspecified)
1%,COCCN(C)C[C@H]1C[C@H](CO)CN(C(=O)c2cc3ccccc3s2)C1
-1%,COc1ccc(CN2CCC(C3CCN(C(C)=O)CC3)C2)c(Cl)c1OC (stereo unspecified)
6%,Cc1ccc(NC(=O)Cn2cccc2-c2nc(-c3ccccc3)no2)c(C)c1
-3%,O=C1CC(c2ccccc2)N(Cc2ccncc2)CCCNCCN1 (stereo unspecified)
-1%,Cc1ccnn1CC(=O)N(Cc1ccncc1)Cc1cccc(OCCc2ccc(F)cc2)c1
-1%,CN(C)C[C@@H]1CN(Cc2ccccc2)C[C@H]1NC(=O)c1ccncn1
14%,Cc1ccc(O[C@H]2COCC[C@H]2NC(=O)c2cc(CC(C)C)nc(N)n2)cn1
-5%,CC(C)n1cnnc1CC1CCN(C(=O)CCCc2ccccc2)C1 (stereo unspecified)
-1%,COc1ccccc1OC1(C(=O)O)CCN(C(=O)C2CC23CCC3)CC1 (stereo unspecified)
5%,COC[C@@H]1CN(S(=O)(=O)c2ccc(C)cc2)C[C@H]1c1nc(C)no1

# (next part)
NPR1 antag,structure
-2%,O=S(=O)(c1cccc(C(F)(F)F)c1)N1CCCC(Cn2cnc3cccnc32)C1 (stereo unspecified)
-26%[70.6 µM],COc1cc(F)ccc1-c1cnc2n[nH]c(-c3ccc4c(c3)OCO4)c2n1
7%,CN1CCCCCCN(C(=O)Nc2ccccc2)CCC1=O
0%[70.6 µM],CC(=O)N[C@@H]1C[C@H](Cn2cc(C3CC3)nn2)[C@@H](O)[C@H]1O
-29%[70.6 µM],CC1(C(=O)NCc2ccccc2)COCc2cnc(Nc3ccccc3)nc21 (stereo unspecified)
0%[70.6 µM],CNC(=O)C1(N2CCC[C@H]2C(=O)N(C)Cc2cccnc2)CCOCC1
-21%,O=c1cc2c(nn1Cc1ccc(OC(F)(F)F)cc1)CCCCC2
3%,Cn1nc(C(=O)N2CCC3(CCCN(C4CCOCC4)C3=O)C2)ccc1=O (stereo unspecified)
-19%,CNc1cc(C2CC(NS(=O)(=O)c3ccc(Cl)s3)C2)nc(N)n1 (stereo unspecified)
3%,COC1CCC12CCN(C(=O)C1(c3ccccc3)CC1)CC2 (stereo unspecified)
3%[70.6 µM],Cc1ccccc1[C@H]1C[C@@H](O)[C@@H](O)[C@@H]1NS(C)(=O)=O
-2%,Cn1cnc(S(=O)(=O)N2CCCC(C(=O)NCCC3=CCCCC3)CCNC(=O)CC2)c1 (stereo unspecified)

# Other records:
NPR1 antag,structure
-2%[70.6 µM],CN(C)C(=O)N(C)Cc1ccc(F)cc1
?,CCCC(=O)Nc1cnc(-c2ccc(C)cc2)nc1
-1%,Cc1ccc(CN2CCCCCCNC(=O)CC2c2ccccc2)o1 (stereo unspecified)
2%,Cc1cn2nnc(C(=O)NC(C)CCc3ccccc3)c2c(=O)[nH]1 (stereo unspecified)
21%[70.6 µM],CC(=O)N1CC[C@H](c2nnc(Cc3c[nH]c4ccccc34)o2)C1
0%[70.6 µM],O=C(O)CCn1ncc2cc(OCC3CCN(c4ncc(F)cn4)CC3)ccc21
?,COc1cccc(C2Cn3nnc(-c4nc(-c5ccccc5)no4)c3CO2)c1 (stereo unspecified)
-7%,Cc1cn2nc(C(=O)NCc3cccc(Cl)c3)cc2c(N(C)Cc2ccccc2)n1
-12%,O=C(CCc1ccccc1)N1CCN(c2cc(-c3ccccc3)[nH]n2)CC1
-1%,Cc1ccccc1NC(=O)N1CCC(N2CCCC(C(=O)N3CCCC3)C2)CC1 (stereo unspecified)
-9%,CCNC(=O)N1CCCC(c2nn(C)c(=O)n2CC)C1 (stereo unspecified)
2%[70.6 µM],Cc1cc(C(=O)N[C@H]2[C@H](O)[C@H](O)C[C@@H]2c2cccnc2)nn1C

# Next results
NPR1 antag,structure
-1%[70.6 µM],C#CCN(C)Cc1nc(C2(O)CCN(C(=O)c3ccccc3F)CC2)cs1
-8%,COCCN1C(=O)c2ccccc2C(C(=O)NCc2ccco2)C12CCCCC2 (stereo unspecified)
0%,COc1ccc(OC)c(-c2nc3cc4c(cc3cc2CN2CCCOCC2)OCO4)c1
2%,CCC(=O)N1CCCC(n2c(C)cnc2-c2ccccc2)C1 (stereo unspecified)
?,Cc1cccc([S+](=O)([O-])N2CCC3(CC2)OCCN(CC2CC2)C3=O)c1
6%,COc1ccc(-c2nc(-c3ccccc3)nc3c2CN(C(=O)c2ccccc2C)CC3)cc1
-3%,CN1CCC(NC(=O)c2n[nH]c3c2CN(C(=O)c2cccc(F)c2)CC3)CC1
4%,CCOC(=O)N1CCN(Cc2cccc(OCC(O)CN3CCOCC3)c2)CC1 (stereo unspecified)
7%,NC(=O)[C@@H]1CN(C(=O)Cc2ccccc2F)C[C@H]1COc1ccccc1
11µM*,COc1cccc(CC(=O)N2CCN(C(=O)c3nnn4c3COC(c3ccc(Cl)cc3)C4)CC2)c1 (stereo unspecified)
3%,COc1ccc(Cl)cc1C(=O)N1CCC(Oc2nccnc2N(C)C)C1 (stereo unspecified)
-4%,Cc1cc(CNC(=O)Cc2ccc(-n3cnnn3)cc2)c2[nH]c(C)c(C)c2c1

# Overlap with the part before: 7 entries, followed by the next part.
NPR1 antag,structure
6%,COc1ccc(-c2nc(-c3ccccc3)nc3c2CN(C(=O)c2ccccc2C)CC3)cc1
-3%,CN1CCC(NC(=O)c2n[nH]c3c2CN(C(=O)c2cccc(F)c2)CC3)CC1
4%,CCOC(=O)N1CCN(Cc2cccc(OCC(O)CN3CCOCC3)c2)CC1 (stereo unspecified)
7%,NC(=O)[C@@H]1CN(C(=O)Cc2ccccc2F)C[C@H]1COc1ccccc1
11µM*,COc1cccc(CC(=O)N2CCN(C(=O)c3nnn4c3COC(c3ccc(Cl)cc3)C4)CC2)c1 (stereo unspecified)
3%,COc1ccc(Cl)cc1C(=O)N1CCC(Oc2nccnc2N(C)C)C1 (stereo unspecified)
-4%,Cc1cc(CNC(=O)Cc2ccc(-n3cnnn3)cc2)c2[nH]c(C)c(C)c2c1
6%[70.6 µM],COCc1ccc2c(c1)c(OC(C)(C)C(=O)NCC1CCOCC1)nn2CCC(C)C
9%,COc1ccc(CCC(=O)N2CCC(N3C(=O)C(O)C34CCCCC4)CC2)cc1 (stereo unspecified)
-12%,Cc1cc(C(=O)N2CCCCC2c2noc(COc3ccc(F)cc3)n2)nn1C (stereo unspecified)
-2%,COc1cccc(CCC(=O)N2CCC(c3n[nH]c(=O)n3Cc3ccc(F)cc3)CC2)c1
-2%,COC1C(=O)N(C2CCN(S(=O)(=O)c3cccc(F)c3)CC2)C12CCOCC2 (stereo unspecified)
-1%,O=C(c1ccc(F)c(Cl)c1)N1CCC2(CC1)CC(O)CCO2 (stereo unspecified)
7%,Cc1cnc(C(=O)NCC23CCC=C2N(C)C(=O)CC3)cn1 (stereo unspecified)
3%,Cc1nn(C)c(C)c1CCC(=O)N1CCCOCCNC(=O)CC1
-1%,Cc1noc(C)c1Cn1cc2c3c(cccc31)[C@H](CC(C)C)N[C@H](C(=O)NCCN(C)C)C2
-3%,O=C(CCc1ccccc1)N1CCNc2cnc(Nc3cccc(C(F)(F)F)c3)nc2C1
16%,COc1cccc(CNC(=O)C2CN(c3cccc(OC)c3)C(=O)N2)c1 (stereo unspecified)
-3%,CC(C)c1ccccc1NC(=O)Cn1ccn2nc3c(c2c1=O)CCCCC3

# The results go on.
NPR1 antag,structure
2%,CC(C)c1noc(CC2CCN(C(=O)c3ccccn3)CC2)n1
-4%,COc1cc(C(=O)Nc2nc3c(s2)C[C@]2(C)CC[C@@H]4[C@H](OC(=O)[C@H]4C)[C@H]2[C@@H]3C)cc(OC)c1OC
37%[activator],COC[C@]1(O)CCN(C(=O)CN2CCCCCC2=O)CC1(C)C
?,CC1=C[C@@H](CN2CCOCC2)[C@H](C(C)C)C[C@H]1Cc1nnc(-c2ccc([N+](=O)[O-])cc2)o1
1%[70.6 µM],CC(C)C[C@@H]1N[C@H](C(=O)NCc2cccs2)Cc2c[nH]c3cccc1c23
-13%,Cc1ccc(C2NC(=O)N(CC(=O)NCCc3ccc(Cl)cc3)C3=C2C(=O)OC3)cc1 (stereo unspecified)
3%,COc1ccc(OCc2nc(C)c(CCO)c(=O)n2CC(=O)Nc2cccc(F)c2)cc1
4%,CCCCS(=O)(=O)N1CCN(C2CCN(CCOC)C2=O)CC1 (stereo unspecified)
?,COc1ccc(CCC(=O)N2CCCC(Cc3noc(-c4ccccc4)n3)C2)cc1 (stereo unspecified)
2%,CC(=O)NC1CCN(C(=O)Cc2c(C)[nH]c3c(C)ccc(C)c23)C1 (stereo unspecified)
?,CC(C)c1ccc(-c2nc(C3CC(=O)N(c4ccc(F)cc4)C3)no2)cc1 (stereo unspecified)
7%[70.6 µM],COc1ccc(-c2noc([C@@H]3C[C@H](NC(=O)NC(C)C)CN3C)n2)cc1

# Later entries
NPR1 antag,structure
?,COc1ccc([C@H]2C[C@@H](O)[C@@H](O)[C@@H]2NC(=O)Nc2ccc(C(F)(F)F)cc2)cc1
-3%,CCOCC(=O)N1CCC(Nc2cccn3ncnc23)CC1
-5%,O=C(c1ccc(C(F)(F)F)cc1)N1CCC2(CC1)COc1ccccc1NC2=O
-2%,Cc1ccccc1S(=O)(=O)N1CCCC(CCC(=O)O)C1 (stereo unspecified)
-8%,Cc1cnc(-c2ccccc2)n1C1CCCN(C(=O)Nc2ccccc2F)C1 (stereo unspecified)
0%[70.6 µM],O=C(NCCc1ccccc1)c1c[nH]c2ncccc12
0%,CCN1c2cc(C(=O)Nc3ccccc3)ccc2C(=O)N2CCCC21 (stereo unspecified)
3%,CC(C)N1CC2CN(C(=O)c3ccccc3)CC(C1)O2
-27%[70.6 µM],Fc1cc(Nc2cnc3ccc(-c4ccccc4)nn23)cc(N2CCOCC2)c1
2%[70.6 µM],CC(C)(C)c1coc([C@@H]2COCCN2Cc2ccc(C(=O)O)cc2)n1
-2%,O=c1n(-c2ccc(C(F)(F)F)cc2)nc2n1CCN([S+](=O)([O-])c1cccc(C(F)(F)F)c1)C2
2%[70.6 µM],COCC(=O)Nc1ccc([C@@H](O)[C@H]2COCC(=O)N2Cc2ccc(F)cc2)cc1

# The listing continues.
NPR1 antag,structure
1%,CC(C)(O)c1cn(C2CCN(C(=O)c3ccccc3F)CC2)nn1
0%,COC[C@@H]1CN(Cc2ccc(OC)c(OC)c2)C[C@H]1c1ccncc1
4%,COc1cccc(CNC(=O)Cn2ccn3nc(-c4ccc(F)cc4)c(CO)c3c2=O)c1OC
?,Cc1ccc(Cl)cc1NC(=O)c1cnc(-c2ccccc2)nc1-c1ccncc1
-1%,COc1ccc(-c2noc([C@@H]3CCCN3C(=O)c3cccc(F)c3)n2)cc1OC
-1%[70.6 µM],Cn1nccc1OCc1cn2c(=O)n(C)cc(-c3ccsc3)c2n1
-22%,COc1ccc(-c2cc(N3CCC(NC(=O)C4COc5ccccc5O4)CC3)n[nH]2)cc1 (stereo unspecified)
0%,O=C(O)CC1(CC(=O)N[C@@H]2C=C(C(=O)N[C@H]3CCCNC3=O)C[C@@H](O)[C@@H]2O)CCCC1
-1%,Cc1nc(-c2cn(C3CCCN(C(=O)C(C)Oc4ccc(Cl)cc4)C3)nn2)no1 (stereo unspecified)
-12%,Cc1cc(C)n(CC(=O)N2C[C@@H](COc3ccccc3)[C@H](C(N)=O)C2)n1
-4%[70.6 µM],CNC(=O)C(C)(C)N1CCC[C@H]1C(=O)NCc1ccc(OC)cc1
13%,CN(C)c1ccc(CN2CCC3(CC2)CC(=O)c2ccccc2O3)cc1

# Next part (4 carried over from the part before).
NPR1 antag,structure
-1%,Cc1nc(-c2cn(C3CCCN(C(=O)C(C)Oc4ccc(Cl)cc4)C3)nn2)no1 (stereo unspecified)
-12%,Cc1cc(C)n(CC(=O)N2C[C@@H](COc3ccccc3)[C@H](C(N)=O)C2)n1
-4%[70.6 µM],CNC(=O)C(C)(C)N1CCC[C@H]1C(=O)NCc1ccc(OC)cc1
13%,CN(C)c1ccc(CN2CCC3(CC2)CC(=O)c2ccccc2O3)cc1
0%,CN(C)S(=O)(=O)CCCN1CCC2(CC1)NC(=O)CC2C(=O)O (stereo unspecified)
2%[70.6 µM],CC1(C)[C@H]2CC[C@@H](CNC(=O)c3cccc(Cl)c3)[C@@H]1C2
-5%,CN(C)c1nc2c(c(=O)[nH]1)CCN(Cc1cc(F)c(F)c(F)c1)CC2
-16%,O=C(c1cc2c(s1)CCCC2)N1CCc2c(nc3cc[nH]n3c2=O)C1
-1%,CCS(=O)(=O)Nc1ccc(C)n(CC(=O)NCc2cc(F)ccc2F)c1=O
-28%,CC(=O)N1C[C@H](NS(=O)(=O)c2ccc(C)c(Cl)c2)[C@@H](C2CC2)C1
3%,O=S(=O)(c1cccs1)N1CC(c2noc(C3CCCN3CC3CC3)n2)C1 (stereo unspecified)
2%,COc1cc(OC)c(NC(=O)Cn2nc3n(c2=O)CCCC3)cc1Cl
1%,COC(=O)[C@@H]1Cc2ncn(Cc3ccc(Cl)cc3)c2CN1S(=O)(=O)c1ccc(NC(C)=O)cc1
-7%[70.6 µM],COC(=O)c1ccc2c(c1)nc1n2[C@@H](CNCc2ccncc2)COC1
?,CSCC(=O)Nc1nn(-c2ccc(F)cc2)c2cccc(N3CCOCC3)c12
4%,Cc1nc(C)c(C(=O)N2CCCCCCNC(=O)[C@@H]3CCC[C@@H]32)s1
-2%[70.6 µM],c1ccc(CCn2cnc3cccnc32)cc1
2%,COC1C(=O)N(CC2CC2)C12CCN(S(=O)(=O)Cc1ccccc1)CC2 (stereo unspecified)
-30%,Cc1ccc(OCc2nc(C3CCN(C(=O)c4ccco4)CC3)no2)cc1
